Assay outcomes: PubChem, National Center for Advancing Translational Sciences (NCATS)
GLA inh pH 4.5 – inhibitors of human alpha-galactosidase A at pH 4.5; P06280; purified enzyme, 4-MU-alpha-Gal fluorescence, pH 4.5; activity change, negative = inhibition, % at 105 µM; 230,000 tested, under 10 active; AID 1467; inconclusive = small, poorly fitted or top-dose-only inhibition, or a rising curve; inactive = flat fitted curve, though single readings scatter; no compound was filed as active;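 further: 0% = full activity with enzyme and -100% = basal without enzyme; dose as in the result columns while the protocol names 77 µM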
Rango dissoc inh – inhibition of RanGTP-driven Rango-importin beta dissociation. O95149+P62826. Biochemical FRET Rango-importin beta, RanGTP-induced dissociation. Potency, µM (titrated, usually from 46.1 µM), without a hit: at the top dose activity change, negative = inhibition. 340,000 compounds, 0.071% hits. AID 540253; active means falling FRET ratio curve, often poorly fitted, with flat reads before Ran was added; inconclusive means other falling curves, or compound fluorescence or quenching; inactive means flat or rising ratio curve;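 further: potency means the concentration at half of the fitted maximal effect; % of control where 0% means no effect; nearly all actives have a fitted effect of over 45% in size; -100% = wells without RanGTP and RCC1; the record marks most hits as doubtful in a second field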
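Compounds sat 5 min at room temperature with 0.1 uM Rango biosensor plus 0.25 uM importin beta, then FRET pre-read. RanGTP-RCC1 (0.6 uM Ran, 2mM GTP, 0.2 uM RCC1) added for 45 min, and the CFP/YFP post-read measured blocked complex dissociation.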
miR-21 reporter – raises the signal of a miR-21 reporter; Potency, µM (highest dose often 38.3 µM), without a hit: at the highest dose reporter change, positive = more light; AID 2288; HeLa miR-21 FLuc reporter, luciferase, 48 h; 340,000 tested, under 10 active; active = well fitted rising curve with a large enough effect; inconclusive = small, poorly fitted or top-dose-only effect; inactive = no such curve, though single readings can be large or run the other way;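 further: % of control where 0% means no effect; miR-21 action dims this reporter so a rising signal means less miR-21 action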
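Using DMEM plus 10% FBS, HeLa miR-21-FLuc cells are incubated with test compounds (final up to about 40uM) for 48 hours; firefly luciferase signal is then imaged following reagent-mediated lysis.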
Rango-impB inh – prevents formation of the Rango-importin beta complex; Q14974; Rango CFP/YFP FRET sensor + importin beta, 45 min; Potency, µM (doses to about 92.2 µM), for inactives: top-dose inhibition of complex formation; 340,000 compounds, 0.031% hits; AID 540263; active = rising FRET ratio curve, often small or poorly fitted; inconclusive = mostly compound fluorescence or quenching in the first reads; inactive = flat curves in all reads;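 further: potency means the concentration at half of the fitted maximal effect; 0% = DMSO wells and 100% = buffer wells lacking importin beta; nearly all actives have a fitted effect of over 15% in size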
Target sequence (Q14974 whole entry, looked up): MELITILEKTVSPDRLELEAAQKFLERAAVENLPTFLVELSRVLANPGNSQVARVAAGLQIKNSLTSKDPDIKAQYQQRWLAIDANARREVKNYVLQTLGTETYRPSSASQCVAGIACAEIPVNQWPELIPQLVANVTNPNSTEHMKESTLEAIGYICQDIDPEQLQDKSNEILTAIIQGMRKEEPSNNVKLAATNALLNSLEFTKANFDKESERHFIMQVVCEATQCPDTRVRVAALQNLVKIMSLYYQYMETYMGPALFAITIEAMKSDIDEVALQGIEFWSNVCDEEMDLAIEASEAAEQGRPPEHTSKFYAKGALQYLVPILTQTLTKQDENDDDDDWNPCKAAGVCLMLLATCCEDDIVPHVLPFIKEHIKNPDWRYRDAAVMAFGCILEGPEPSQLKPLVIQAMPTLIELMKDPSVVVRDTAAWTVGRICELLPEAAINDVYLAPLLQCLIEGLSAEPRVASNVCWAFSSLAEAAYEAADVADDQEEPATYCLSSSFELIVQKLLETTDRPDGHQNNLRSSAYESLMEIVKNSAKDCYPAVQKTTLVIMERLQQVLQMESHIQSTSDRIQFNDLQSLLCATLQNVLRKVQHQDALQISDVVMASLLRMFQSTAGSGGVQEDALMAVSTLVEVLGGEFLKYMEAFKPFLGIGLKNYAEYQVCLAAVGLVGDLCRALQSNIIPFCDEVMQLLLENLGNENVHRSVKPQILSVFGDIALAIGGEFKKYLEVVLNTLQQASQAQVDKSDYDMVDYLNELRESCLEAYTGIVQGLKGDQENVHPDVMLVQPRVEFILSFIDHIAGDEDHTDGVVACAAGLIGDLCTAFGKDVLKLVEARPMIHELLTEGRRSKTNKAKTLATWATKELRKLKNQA
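Inhibition scored from the CFP 486 nm/YFP 530 nm FRET ratio 45 min after adding 0.125 microM importin beta to 50 nM Rango biosensor preincubated 5 min with compound (room temperature, PBS with DTT, Tween-20, BSA). No-importin wells as positive control.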
Starred values were filed as active, the others as inactive; ? = inconclusive; . = no result given; & = joins results of further samples.

SMILES	GLA inh pH 4.5	Rango dissoc inh	miR-21 reporter	Rango-impB inh
CCCn1c(C)cc(/C=C(\C#N)C(=O)OCC(=O)Nc2ccc(OC)c(Cl)c2)c1C	-1	?	-23%	?
Cc1nc(NC(=O)CSc2nc(N)cc(N)n2)sc1C	.	1%	-2%	2.9%
O=C(CN(c1cc(Cl)ccc1Cl)S(=O)(=O)c1ccccc1)N1CCOCC1	.	1%	-2%	-4.4%
O=C(O)c1cccc(-n2cccc2/C=C2/NC(=O)N(Cc3ccccc3F)C2=O)c1	-17	8%	3%	-2.1%
N/C(=N\OC(=O)COc1ccc(Br)cc1)c1cccc([N+](=O)[O-])c1	-1	4%	0%	13%
O=C1c2ccccc2NC(c2ccc(-c3cccs3)o2)N1O (stereo unspecified)	.	-25%	.	-1.7%
O=C(NCCCN1CCOCC1)C1CCC(=O)N1C1CCCCC1 (stereo unspecified)	5	-20%	-1%	-5.2%
O=C(O)c1ccc(N/N=C/c2ccc(-c3ccc(Cl)cc3Cl)o2)cc1	-2	?	-91%	?
Cc1cc(=O)[nH]c(SCC(=O)Nc2ccc(S(=O)(=O)N3CCCCC3)cc2)n1	2	10%	-7%	-1.6%
Cc1cc2cc(C)c3nnc(SCc4ccccn4)n3c2cc1C	7	-10%	-3%	-1.0%
CC(C)n1cnnc1SCC(=O)NNC(=O)COc1ccc(Cl)cc1	.	-1%	.	-2.5%
CCC(C)(C(=O)NC1CCCCC1)N(Cc1ccco1)C(=O)c1ccc2c(c1)OCO2 (stereo unspecified)	-5	20%	1%	3.9%
Cc1ccc2nc3c(cc(C(=O)NCc4cccnc4)c(=N)n3C(C)C)c(=O)n2c1	-2	.	-5%	.
CC(OC(=O)CN1C(=O)COc2ccccc21)C(=O)NCc1ccc(F)cc1 (stereo unspecified)	.	-2%	-2%	-1.3%
Nc1c(C(=O)NC2CCCCC2)nsc1C(=O)OCC(=O)NC1CCCCC1	8	7%	-2%	-0.6%
c1ccc(-c2cnc(CN3CCN(c4ccccc4)CC3)o2)cc1	.	-7%	-11%	?
COc1ccc(C(=O)N(C)Cc2ccon2)cc1OC1CCN(C(C)C)CC1	.	9%	?	3.7%
CCOc1ccc(/C=C/C(=O)OCC(=O)c2ccccc2OC)cc1OC	.	-21%	.	-0.9%
CCc1ccc(N/C(SC)=C(/C#N)C(N)=O)cc1	7	0%	-5%	-0.7%
CC(C)Oc1ccc(C2CC(=O)NC2=O)cc1 (stereo unspecified)	.	-3%	-4%	-1.2%

4 entries drawn at random from the list so far, as already listed:
SMILES	GLA inh pH 4.5	Rango dissoc inh	miR-21 reporter	Rango-impB inh
CC(OC(=O)CN1C(=O)COc2ccccc21)C(=O)NCc1ccc(F)cc1 (stereo unspecified)	.	-2%	-2%	-1.3%
c1ccc(-c2cnc(CN3CCN(c4ccccc4)CC3)o2)cc1	.	-7%	-11%	?
CCc1ccc(N/C(SC)=C(/C#N)C(N)=O)cc1	7	0%	-5%	-0.7%
CC(C)n1cnnc1SCC(=O)NNC(=O)COc1ccc(Cl)cc1	.	-1%	.	-2.5%

The results go on.
SMILES	GLA inh pH 4.5	Rango dissoc inh	miR-21 reporter	Rango-impB inh
O=S(=O)(NCc1cccc(C(F)(F)F)c1)NCc1ccccc1F	-3	6%	-6%	-0.1%
COc1ccc(-c2noc(COc3ccc4c(c3)OCO4)n2)cc1OC	-1	-1%	-10%	3.8%
CC(Oc1ccc(Cl)cc1Cl)C(=O)NNC(=O)C(=O)N1CCCCC1 (stereo unspecified)	3	5%	-15%	-2.7%
COc1ccc(/C=N/NC(=O)CCn2cnc(-c3ccccc3)c2-c2ccccc2)cc1	-3	2%	29%	1.3%
COC(=O)c1ccc2c(=O)[nH]c(COC(=O)c3c(-c4ccccc4)noc3C)nc2c1	.	-21%	.	?
O=C(COc1ccc(S(=O)(=O)N2CCOCC2)cc1Cl)N1CCCC1	.	-10%	1%	1.1%
COc1ccc(C)cc1NC(=O)NC1CCCCCCC1	.	6%	-13%	-3.3%
Cc1[nH]nc(C(F)(F)F)c1N=NN1CCOCC1	.	-10%	.	-0.6%
Cc1ccc(CN(C)C(=O)c2ccc3c(c2)NC(=O)CS3)o1	6	-11%	-4%	-0.2%
COc1ccc(S(=O)(=O)N(CC(=O)NC2CCCCC2)c2ccc(F)cc2)cc1	.	-20%	0%	-0.1%
O=C(CSc1cn(CCNC(=O)c2ccccc2F)c2ccccc12)NCC1CCCO1 (stereo unspecified)	.	-7%	10%	-1.4%
Cc1ccc(OCC(=O)N/N=C\c2ccncc2)c(C)c1	8	-16%	-12%	0.1%
Cc1nnc(NC(=O)c2cc3n(n2)C(C(F)(F)F)CC(C2CC2)N3)s1 (stereo unspecified)	5	1%	-3%	3.0%
O=C(Nc1ccc2ncccc2c1)c1ccccc1Br	.	5%	-61%	-2.4%
CN(C(=O)c1ccc(NC(=O)Cc2ccc(NC(=O)C3CCCN(C(=O)C4CC4)C3)cc2)cc1)C1CCCC1 (stereo unspecified)	.	-12%	.	-0.2%
O=C(Nc1ccncc1)Nc1ccccn1	-18	1%	-11%	-0.4%
COc1ccc(C(C)=O)cc1CC(=O)Nc1ccccc1-c1ccccc1	.	-11%	-2%	-1.6%
CCOC(=O)N1CCC(NC(=O)CSCc2nc(-c3ccc(OC)cc3)oc2C)CC1	.	-9%	4%	0.5%
Cc1c(NS(=O)(=O)c2ccc3c(c2)c(=O)n(C)c(=O)n3C)c(=O)n(-c2ccccc2)n1C	3	-3%	0%	-0.2%
CC1CCCN(C(=O)c2ccc3c(c2)C(=O)N(CCC2=CCCCC2)C3=O)C1 (stereo unspecified)	11	-7%	-8%	-0.5%
CN(CC(=O)Nc1ccccc1Cl)C(=O)CSc1nncn1C	.	0%	.	-4.4%
COc1cccc(S(=O)(=O)Nc2ccc(C(=O)N3CCOCC3)cc2)c1	3	8%	-1%	-0.6%
COc1ccc(C2=CSC3=C(C(=O)c4cccc(S(=O)(=O)N(C)C)c4)CCN23)cc1	-2	-16%	-3%	4.2%
Cc1cc(NC(=O)CSc2nnc(C(C)N(C)C)n2Cc2ccccc2)no1 (stereo unspecified)	-6	-4%	-1%	-1.1%
COc1cccc(N/C(SCc2ccccc2F)=C(/C#N)C(=O)NCc2cccs2)c1	-12	-12%	-2%	-4.1%
COc1ccc2oc(C(=O)N(C)Cc3ccc(OC(F)F)cc3)c(C)c2c1	.	8%	-18%	1.2%
CC1Sc2ccc(C(=O)NCc3cccc(C(F)(F)F)c3)cc2NC1=O (stereo unspecified)	.	-3%	.	-3.4%
CC(=O)N[C@@H](Cc1c[nH]c2ccccc12)C(=O)NCc1ccccc1	.	12%	1%	-0.7%
N#CC1(NC(=O)COC(=O)c2nc(Cl)c(Cl)c(N)c2Cl)CCCCC1	.	-7%	.	2.5%
O=C1C(=O)N(C/C=C/c2ccccc2)c2ccccc21	.	10%	11%	2.5%
COc1ccc(-c2noc(CCC(=O)N3CCN(c4ccccc4Cl)CC3)n2)cc1	.	3%	.	-3.4%
O=C(CSc1nnc(-c2ccco2)o1)N1c2ccccc2CCc2ccccc21	-6	-6%	26%	0.5%
C=CCn1c(SCC(=O)NCC2CCCO2)nnc1-c1ccccc1 (stereo unspecified)	3	7%	1%	1.8%
Nc1ncn(-c2ncc(C(F)(F)F)cc2Cl)n1	-6	1%	1%	-0.2%
COC(=O)c1ccc2c(c1)NC(=O)C(N1CCOCC1)S2 (stereo unspecified)	9	-15%	-3%	12%
O=C(COC(=O)/C=C/c1ccccc1)NCCC1=CCCCC1	4	-7%	-12%	-2.7%
O=C1c2cccc3cccc(c23)C(=O)N1CCc1ccccc1	-2	1%	-35%	0.2%
COc1ccc(CNC(=O)CN2CCN(C(c3ccccc3)c3ccccc3)CC2)cc1	-6	2%	15%	1.8%
O=C(COc1ccccc1F)N/N=C1\CCCc2ccccc21	-1	8%	-75%	3.3%
O=C(NCCc1ccccc1)c1cccc(S(=O)(=O)N2CCCCC2)c1	.	4%	-15%	-0.1%
CCCC(C)C(=O)Nc1nc(C)c(-c2csc(Nc3cc(OC)ccc3OC)n2)s1 (stereo unspecified)	4	-10%	2%	-0.5%
C=CCOc1ccc(NC(=O)C2CC(=O)N(C(C)C)C2)cc1 (stereo unspecified)	1	-1%	-5%	-0.9%
COc1ccc(C(C)NC(=S)NCc2ccc(F)cc2)cc1 (stereo unspecified)	.	-1%	2%	1.3%
CC1=C(C(=O)Nc2ccc(F)cc2)C(c2ccncc2)C2=C(CCCC2=O)N1 (stereo unspecified)	-1	-12%	-1%	-0.3%
Cc1cc(C)n2nc(C(=O)N3CCCC(CNS(=O)(=O)c4cccs4)C3)cc2n1 (stereo unspecified)	-16	23%	-17%	-3.0%
COc1cc(CN2CCCC(N3CCN(c4ccc(F)cc4)CC3)C2)ccc1F (stereo unspecified)	.	47%	7%	-1.9%
COc1ccc(CN2CCN(C(C)C)C(CCO)C2)cc1Cn1cccn1 (stereo unspecified)	-1	23%	2%	-0.3%
Cc1cccc(NC(=O)C2c3ccccc3C(=O)N3CCc4ccccc4C23)n1 (stereo unspecified)	3	3%	-4%	-4.8%
CCOC(=O)CN1C(=O)C(O)=C(C(C)=O)C1c1ccc([N+](=O)[O-])cc1 (stereo unspecified)	-6	-15%	-3%	-1.3%
Cc1ccc(NC(=O)CSCC(=O)Nc2ccc(N3CCOCC3)cc2N2CCOCC2)cc1	.	1%	.	-1.3%

Additional structures:
SMILES	GLA inh pH 4.5	Rango dissoc inh	miR-21 reporter	Rango-impB inh
Cc1cc(=O)c2ccccc2s1	8	-1%	-2%	0.7%
CC1=C(C(=O)Nc2cccc(C(=O)NC3CCCC(C)C3C)c2)SCCO1 (stereo unspecified)	.	-11%	14%	4.1%
CCS(=O)(=O)c1ccc(O)c(NC(=O)COc2ccc(OC)cc2)c1	6	-4%	-7%	-4.6%
N#CC(C#N)=Cc1ccc(OCC(=O)N2CCOCC2)cc1	-7	-1%	0%	1.3%
CC1CCN(S(=O)(=O)c2ccc3c(c2)n(C)c(=O)n3C)CC1	.	4%	-6%	-0.1%
COC(=O)C1=C(C)NC(=O)/C1=C\c1cc(C)n(-c2cccc(C)c2)c1C	-18	-5%	-3%	1.4%
CCN(CC)S(=O)(=O)c1ccc(N2CCOCC2)c(NC(=O)COc2ccccc2C)c1	.	0%	.	4.1%
CCN([C@H](CO)CC(C)C)S(=O)(=O)c1ccccc1	.	12%	.	0.1%
CCOC(=O)CN(C(=O)CSc1nnc(CNc2ccc(C)cc2C)n1CC)c1ccccc1	-13	-15%	-5%	-5.4%
Cc1cc(NC2CCCCC2)nc(NCc2ccccc2)n1	-6	-5%	28%	6.5%
CC(=O)c1ccc(Oc2ncnc(N)c2[N+](=O)[O-])cc1	.	-16%	-2%	0.7%
CN(C)S(=O)(=O)c1ccc(NC(=O)Cn2ccsc2=N)cc1	3	9%	-3%	-1.9%
COc1ccc(NS(=O)(=O)c2ccc3nc(COc4cccc5ccccc45)[nH]c3c2)cc1	-6	-18%	19%	-1.0%
CCOc1nc(NC(=O)NS(=O)(=O)c2cccc(Cl)c2)nc(-c2ccccc2)n1	-2	5%	-23%	-0.8%
O=C1NCC(O)=C1C=NC12CC3CC(CC(C3)C1)C2	-13&-4	8%&0%	-14%&-12%	0.3%&-0.2%
COc1ccc(C2CCCN2CC(O)COc2ccccc2C(C)C)cc1 (stereo unspecified)	.	-6%	13%	-0.3%
O=C(O)C1CCCN1c1ncccc1[N+](=O)[O-] (stereo unspecified)	0	10%	-2%	5.1%
Clc1ncccc1-c1nc2ccccc2n1Cc1ccccc1	3	-4%	-5%	-5.0%
O=C(NCc1ccccc1)c1cccc(NC(=O)C2CCCCC2)c1	.	1%	.	-0.1%
COc1ccccc1N1CCN(C(=O)CN2C(=O)c3ccccc3C2=O)CC1	1	10%	-4%	1.7%
O=C(CCc1nnc(-c2ccsc2)o1)NCc1ccccc1OC(F)(F)F	5	-21%	-15%	0.8%

This is a subset, so the mix of outcomes need not match the whole.
